GALR2 agonist: GALR2 receptor agonists, primary screen, cell-based | activation, %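 (tested at 5 µM)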 | 140,000 compounds, 0.48% hits | Galanin receptor type 2 (Homo sapiens), O43603 | GALR2-expressing cells, agonist activation read-out;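 active = above mean plus 3 SD of all compounds, about 5% in these data, not always enough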;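 note: 0% = vehicle buffer wells and 100% = reference agonist at full effect; tested in CHO reporter cells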
Target sequence (O43603 whole entry, looked up): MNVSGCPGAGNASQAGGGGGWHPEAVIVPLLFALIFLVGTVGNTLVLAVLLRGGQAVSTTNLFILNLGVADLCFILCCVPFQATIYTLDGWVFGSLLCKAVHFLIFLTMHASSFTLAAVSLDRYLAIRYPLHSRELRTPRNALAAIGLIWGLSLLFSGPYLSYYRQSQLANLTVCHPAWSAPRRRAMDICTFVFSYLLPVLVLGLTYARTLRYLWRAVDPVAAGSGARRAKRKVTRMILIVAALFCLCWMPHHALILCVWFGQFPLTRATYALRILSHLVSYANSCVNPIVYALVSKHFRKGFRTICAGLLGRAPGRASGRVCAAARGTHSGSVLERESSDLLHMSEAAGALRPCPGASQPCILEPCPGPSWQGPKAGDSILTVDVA
Insulin prom inh: inhibitors of insulin promoter-driven GFP, primary screen, imaging, TRM-6 cells (human fetal islet line), eGFP reporter, cell count; reporter expression induced with tamoxifen; inhibition, % at 2 µM; 130,000 compounds, 0.9% hits; AID 1273, 2008;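 active = inhibition above the mean plus 3 SD, with well images judged a real hit on visual review, cut at about 60% in these data, passing the limit was not always enough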
HSV replic up: enhancers of HSV replication in host cells, fold increase, host cell viability. HSV replication augmentation in cells. maximum fold increase. 220,000 compounds, 0.005% hits. AID 1956, 2009;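 active = peak rise of 1.5-fold or more in the series; tested in PC3 cells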;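 note: first round at 10 µM; read as green reporter fluorescence; hits show the peak of a series up to 25 µM; 1 = signal of infected wells without compound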
PKD1 inh: inhibitors of human PKD1 kinase, biochemical, fluorescence polarization | inhibition, %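 (about 10 µM by stock and volumes)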 | 200,000 compounds, 0.056% hits | PKD1 kinase fluorescence polarization assay | AID 797, 2007;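 active = inhibition of 50% or more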;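 note: controls were vehicle for no effect and a reference inhibitor for full effect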
RGS16-Gao: modulators of RGS16 binding to Galphao, primary screen, biochemical, human proteins, multiplexed bead flow cytometry. Regulator of G-protein signaling 16 (Homo sapiens) + Guanine nucleotide-binding protein …. bead-based flow cytometry RGS16-Galphao binding, fluorescence; actives lie on both sides. binding response (% of control), % at 10 µM. 220,000 compounds, 0.38% hits;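 active = below 25% or above 175%, edge rows of some plates excepted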;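 note: Galphao activated by GDP with aluminum fluoride before binding; 100% = wells without compound and 0% = beads without RGS; some results beyond the cut were filed as inactive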
Target sequence (O15492 whole entry, looked up): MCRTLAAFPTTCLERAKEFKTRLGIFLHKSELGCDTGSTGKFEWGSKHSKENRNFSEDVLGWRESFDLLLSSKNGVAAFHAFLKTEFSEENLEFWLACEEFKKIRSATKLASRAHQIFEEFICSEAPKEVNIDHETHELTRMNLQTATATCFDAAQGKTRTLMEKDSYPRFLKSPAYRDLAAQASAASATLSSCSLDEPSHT
Target sequence (P09471 whole entry, looked up): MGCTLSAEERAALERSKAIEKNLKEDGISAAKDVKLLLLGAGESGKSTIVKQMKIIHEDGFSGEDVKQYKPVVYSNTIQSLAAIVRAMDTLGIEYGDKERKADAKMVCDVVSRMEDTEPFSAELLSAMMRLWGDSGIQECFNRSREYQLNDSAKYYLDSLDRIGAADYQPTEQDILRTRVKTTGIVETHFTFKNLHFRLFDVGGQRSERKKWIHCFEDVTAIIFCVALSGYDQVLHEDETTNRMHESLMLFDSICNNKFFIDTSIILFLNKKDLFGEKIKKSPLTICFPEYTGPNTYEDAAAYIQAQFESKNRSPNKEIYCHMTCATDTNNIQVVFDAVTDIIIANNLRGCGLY
Insulin prom inh cell count: further read-out of Insulin prom inh, marked with its call; normalized cell count, %; measured here: cell count, toxicity; reference of the scale not given here;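 cells exposed to compound for 48 h; stained nuclei by imaging scaled within each plate; lower means fewer cells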
HSV replic up primary fold: second read-out of HSV replic up, no call of its own (marks repeat the call); fold increase; compound at 10 µM; measured here: primary screen fold increase 10 uM; tested in PC3 cells;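 GFP signal in the first replicate; 1 = infected wells without compound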
* = called active by the depositor; i = inactive; . = not tested or not shown.

cpd	Compound	GALR2 agonist	Insulin prom inh	Insulin prom inh cell count	HSV replic up
1	CCOC(=O)c1cnc2ccc(OCC)cc2c1NCc1cccnc1	0.9	0	58	i
2	O=C(CC1C=Cc2ccccc2N1C(=O)c1ccccc1)c1ccccc1 (centres undefined)	.	.	.	i
3	COc1ccc(NC(=O)CSc2nncs2)cc1OC	-1.2	.	.	i
4	COc1cccc(/C=C2/CN(C)CC3=C2OC(N)=C(C#N)C3c2cccc(OC)c2)c1 (centres undefined)	-2.3	-7	109	i
5	COc1ccc(OCC(O)Cn2c(=N)n(CCN3CCCCC3)c3ccccc32)cc1 (centres undefined)	-2.4	-129	82	i
6	Cc1ccc(S(=O)(=O)N2CCCC2C(=O)O)cc1 (centres undefined)	0.5	-15	81	i
7	Cc1cc(-n2ccc(=O)[nH]c2=O)nc(-c2ccccc2)n1	-1.0	-65	82	i
8	CC(C)(C)n1nnnc1C(c1ccccc1)N1CCc2ccccc2C1 (centres undefined)	0.3	0	136	i
9	O=[N+]([O-])c1cccc(C2=NCCS2)c1	0.4	14	104	i
10	CN(C)C(=O)N1CCNCC1	.	.	.	i

cpd	HSV replic up primary fold	PKD1 inh	RGS16-Gao
1	0.97	-7	111
2	1	.	105
3	0.91	-3	104
4	0.84	-10	102
5	0.66	5	117
6	1	-7	98
7	0.92	0	94
8	0.88	-7	101
9	0.98	-4	123
10	0.97	-6	106

The closing four compounds of the section above open the next one.
cpd	Compound	GALR2 agonist	Insulin prom inh	Insulin prom inh cell count	HSV replic up
7	Cc1cc(-n2ccc(=O)[nH]c2=O)nc(-c2ccccc2)n1	-1.0	-65	82	i
8	CC(C)(C)n1nnnc1C(c1ccccc1)N1CCc2ccccc2C1 (centres undefined)	0.3	0	136	i
9	O=[N+]([O-])c1cccc(C2=NCCS2)c1	0.4	14	104	i
10	CN(C)C(=O)N1CCNCC1	.	.	.	i
11	Cc1nc2nc3c(cn2n1)C(=O)CC(c1ccccc1)C3 (centres undefined)	0.3	.	.	i
12	Cc1ccc(Oc2nc3ccccn3c(=O)c2/C=C(\C#N)C(=O)Nc2c(C)n(C)n(-c3ccccc3)c2=O)c(C)c1	-1.0	.	.	i
13	CCOC1(OCC)C(c2ccc(Cl)cc2)C(C#N)(C#N)C1(OCC)OCC (centres undefined)	-1.7	-49	69	.
14	COCCn1cnc2c(c1=O)c1nc3ccccc3nc1n2/N=C/c1ccc(OC)c(OC)c1	.	.	.	i
15	COc1ccc2c(c1)[nH]c1c(=O)n(/N=C/c3ccc(OC)c(CN4CCCCC4)c3)cnc12	.	.	.	i
16	Cc1ccc(CC(=O)NCc2ccc3c(c2)OCO3)cc1	0.2	29	57	i
17	CC(=O)c1sc(-c2ccccc2)cc1NS(=O)(=O)c1ccccc1	.	.	.	i
18	CC(=O)Nc1ccc(Oc2cnccn2)cc1	-2.4	.	.	i
19	C=CCSc1nnc2c(n1)OC(c1c(C)[nH]n(-c3ccccc3)c1=O)Nc1ccccc1-2 (centres undefined)	-3.3	-28	105	i
20	CCOc1ccccc1N1C(=O)CC(N(O)c2ccccc2)C1=O (centres undefined)	-4.6	.	.	i

cpd	HSV replic up primary fold	PKD1 inh	RGS16-Gao
7	0.92	0	94
8	0.88	-7	101
9	0.98	-4	123
10	0.97	-6	106
11	1.1	1	101
12	1.2	-10	102
13	.	-6	102
14	0.82	.	100
15	0.93	.	104
16	0.96	-7	94
17	0.92	.	101
18	1.1	-2	90
19	0.96	-7	88
20	0.96	5	102

Continued:
cpd	Compound	GALR2 agonist	Insulin prom inh	Insulin prom inh cell count	HSV replic up
21	Nc1c2c(=O)oc(-c3ccccc3)cc2nn1-c1ccccc1	-1.9	54	160	.
22	COc1ccc(-c2ccnc3nc(N4CCN(c5ccccc5)CC4)nn23)cc1	-3.1	45	110	i
23	COc1cc(C2NC(=S)NC(C)=C2C(=O)c2ccccc2)ccc1O (centres undefined)	-0.4	25	125	i
24	Cc1ccc(CN2CCN(C3CCCC3)C(CCO)C2)s1 (centres undefined)	.	.	.	i
25	Cc1nn(-c2ccccc2)c(C)c1-c1cc(C(=O)N/N=C/c2cccnc2)[nH]n1	.	43	143	i
26	Cc1ccc(Nc2nnns2)cc1	-1.0	18	81	i
27	O=C(Nc1ccccc1)C1=C[C@H](c2csc3ccccc23)C[C@H](OCc2ccc(CO)cc2)O1	.	.	.	i
28	COc1ccc(NC(=O)C23CCC(C2)C(C)(C)C3=O)cc1 (centres undefined)	-2.0	25	147	i
29	O=C(O)c1ccc(N/N=C/c2ccc(OC(=O)c3cccc(Cl)c3)cc2)cc1	.	.	.	i
30	Cc1ccc(Cn2ccc(NC(=O)CCSc3nc(-c4ccco4)cc(C(F)(F)F)n3)n2)cc1	-0.4	16	75	i

cpd	HSV replic up primary fold	PKD1 inh	RGS16-Gao
21	.	-3	99
22	0.88	9	106
23	0.98	-13	105
24	1	0	110
25	0.75	4	99
26	0.88	-10	91
27	0.97	9	103
28	0.95	7	108
29	0.91	.	109
30	0.87	-6	118

Additional results:
cpd	Compound	GALR2 agonist	Insulin prom inh	Insulin prom inh cell count	HSV replic up
31	CC(=O)N/C(=C/c1ccc2c(c1)OCO2)C(=O)NCC(=O)O	-0.9	7	145	i
32	CCOCC(=O)N(CC)Cc1ccccc1	.	-33	104	i
33	COCc1cc(C)nc(Oc2ccccc2)c1C#N	.	.	.	i
34	CCCC12CN3CCN(CC(C3)/C1=N\NC(=O)Nc1ccccc1)C2	-1.1	.	.	i
35	FC(F)(F)c1cc(-c2ccco2)nc(-n2nc(C(F)(F)F)cc2C2CC2)n1	-2.0	-7	106	i
36	CCN1/C(=C\C(=S)Nc2ccccc2)Sc2ccccc21	.	.	.	i
37	CC(=Nc1ccccc1)C1=C(O)CCCC1=O	-1.1	-32	65	i
38	CC(=O)N(C)c1ccc(NC(=O)Nc2ccc(C)c(C)c2)cc1	.	.	.	i
39	COc1cc(/C=N/NC(=O)c2ccc(Cl)cc2)ccc1OCC(=O)N1CC(C)OC(C)C1 (centres undefined)	.	27	74	i
40	O=C(Nc1nnc(CCN2CCCCC2)s1)c1ccc(Cl)cc1Cl	.	.	.	i

cpd	HSV replic up primary fold	PKD1 inh	RGS16-Gao
31	1.1	-5	107
32	0.95	-13	110
33	0.96	-4	102
34	0.99	2	115
35	1.1	4	89
36	0.95	-9	100
37	1.2	-1	129
38	0.93	-7	104
39	0.9	-2	110
40	1	.	102

Additional records.
cpd	Compound	GALR2 agonist	Insulin prom inh	Insulin prom inh cell count	HSV replic up
41	O=C(NC1CCCc2ccccc21)c1n[nH]c(=O)c2ccccc12 (centres undefined)	.	.	.	i
42	CC(C)(C)c1ccc(NC(=O)COC(=O)C2=COCCO2)cc1	-1.2	.	.	i
43	Cc1ccc(C2C=NN(c3ccccc3)C2=O)cc1 (centres undefined)	.	.	.	i
44	N#Cc1cn(-c2ccccc2)nc1-c1ccccc1	-1.2	.	.	i
45	CCC(C)C(NC(=O)c1ccc(Cl)cc1)C(=O)Nc1cccnc1 (centres undefined)	.	.	.	i
46	C=CCNC(=O)CN(c1ccccc1OCC)S(=O)(=O)c1ccc(C)cc1	-1.1	15	119	i
47	Cc1ccc(CNC2=NCCCCC2)n1C	0.1	50	83	i
48	O=C(Nc1ccccc1)N1CCC(c2nc(-c3ccc(S(=O)(=O)N4CCOCC4)cc3)no2)CC1	-1.0	.	.	i
49	CC(/C=C/c1ccc(O)cc1)=N/O	-3.1	50	41	i
50	CCOC(=O)c1ccc2c(c1)nc(COc1ccc(OC)cc1)n2CC	-2.1	28	218	i

cpd	HSV replic up primary fold	PKD1 inh	RGS16-Gao
41	1	-3	105
42	0.96	-7	-183*
43	0.94	-5	98
44	1.4	8	96
45	0.98	-6	102
46	0.97	-3	105
47	1.1	-2	101
48	0.62	-6	93
49	0.77	3	.
50	0.83	-2	100

Individual results from the list.
HSV replic up primary fold result of cpd 49 = 0.77
Insulin prom inh cell count result of cpd 50 = 218
Insulin prom inh result of cpd 46 = 15
GALR2 agonist result of cpd 42 = -1.2
PKD1 inh result of cpd 48 = -6

(listing goes on)
cpd	Compound	GALR2 agonist	Insulin prom inh	Insulin prom inh cell count	HSV replic up
51	CC(C)CC(C(=O)OCC(=O)Nc1ncc(Cl)cc1Cl)N1C(=O)c2ccccc2C1=O (centres undefined)	-0.8	-42	260	i
52	CC(C)C(c1nnnn1Cc1ccc(F)cc1)N1CCC(C(N)=O)CC1 (centres undefined)	.	39	60	i
53	N#CCCn1nc(-c2ccc([N+](=O)[O-])cc2)cc1Nc1ccccc1NC(=O)C(F)(F)F	-1.3	.	.	i
54	COC(=O)N/N=C/c1ccc(-c2cc(Cl)ccc2Cl)o1	-0.4	.	.	i
55	C/C(N)=C(/C#N)C(=O)CSc1nc2ccc(C)cc2[nH]1	-1.2	3	115	i
56	CC(C)(C)NC(=O)C(c1ccccc1)N(C(=O)c1ccco1)C1CC1 (centres undefined)	-3.0	11	82	i
57	CC(C)Oc1ccc(C2CCC(=O)NC2=O)cc1 (centres undefined)	-0.6	.	.	i
58	COC(=O)c1ccc(OC(=O)c2nn(C)cc2Cl)c(OC)c1	-1.0	.	.	i
59	Cn1c(SCc2cnc(-c3ccccc3)s2)nnc1C1COc2ccccc2O1 (centres undefined)	-0.4	.	.	i
60	CC(C)NC(=O)CSc1ccccc1C(=O)NCc1ccc2c(c1)OCO2	-3.1	-52	107	i

cpd	HSV replic up primary fold	PKD1 inh	RGS16-Gao
51	1	-4	97
52	0.94	-3	64
53	0.76	4	91
54	1	-7	56
55	0.79	-5	108
56	1	12	86
57	0.93	-9	106
58	0.84	-5	101
59	1.1	-13	107
60	1	-11	105

(cont.)
cpd	Compound	GALR2 agonist	Insulin prom inh	Insulin prom inh cell count	HSV replic up
61	CCOC(=O)c1c(NC(=O)C2C3C=CC(C3)C2C(=O)O)sc2c1CCC(C)C2 (centres undefined)	-0.9	29	85	i
62	CCOC(=O)c1nc(Nc2ccc(C(=O)OC)cc2)c2ccccc2n1	0.0	-32	85	.
63	CSc1ccc2c(c1)N(CCC1CCCCN1C)c1ccccc1S2 (centres undefined)	1.3	-86	141	i
64	CCCCC1CCC(C(=O)N2CCOCC2)CC1 (centres undefined)	-0.6	.	.	i
65	Cc1[nH]c(=O)[nH]c(=O)c1S(=O)(=O)N(CC(C)C)CC(C)C	.	.	.	i
66	CC(C)(C)c1cc(NC(=O)NN2CCOCC2)nn1-c1c(Cl)cc(Cl)cc1Cl	.	.	.	i
67	O=C(c1ccc2c(c1)C(=O)N(Cc1ccco1)C2=O)N1CCOCC1	-1.5	-14	127	i
68	CCCCCCN(C(=O)CCCCCN1C(=O)NC(c2ccc(-c3ccccc3)cc2)C(C(=O)OCc2ccccc2)=C1C)C(C(=O)NCCCC)c1cccc(C(=O)OC)c1 (centres undefined)	.	.	.	i
69	CC(C)C(C)NC(=O)CSc1nc2scc(-c3ccco3)c2c(=O)n1-c1ccccc1 (centres undefined)	-0.5	-17	169	i
70	COc1ccc(C(CCNCc2ccccc2)c2ccc(F)cc2)cc1 (centres undefined)	-1.4	.	.	i

cpd	HSV replic up primary fold	PKD1 inh	RGS16-Gao
61	1.1	-8	106
62	.	0	106
63	0.68	3	100
64	0.99	-3	104
65	1.1	4	105
66	1.2	.	105
67	0.99	-1	110
68	0.84	.	101
69	1.2	0	103
70	0.81	0	101

(further entries)
cpd	Compound	GALR2 agonist	Insulin prom inh	Insulin prom inh cell count	HSV replic up
71	Cc1ccc(N(C(=O)c2ccco2)C2C=CS(=O)(=O)C2)cc1 (centres undefined)	.	5	137	i
72	C#CCOCCOCCOCCNc1nc(N2CCN(C(=O)C(Cc3ccc(O)cc3)n3cc(C(N)C(C)CC)nn3)CC2)nc(N2CCN(C(=O)C(Cc3ccc(O)cc3)n3cc(C(N)C(C)CC)nn3)CC2)n1 (centres undefined)	.	.	.	i
73	COc1ccc(NC(=O)C2CC(=O)N/C(=N/NC(=O)c3ccc(Cl)cc3)S2)cc1 (centres undefined)	.	.	.	i
74	CCOC(=O)C1=C(c2ccccc2)NC(=O)NC1c1ccc(N(C)C)cc1 (centres undefined)	-0.8	.	.	i
75	O=C1c2ccccc2NC(c2cccc(O)c2)N1Cc1ccco1 (centres undefined)	.	.	.	i
76	COCc1nc(-c2ccc(-c3ccc(C)cc3)nc2OC)no1	-3.2	38	56	i
77	CCc1cc2c(C)cc(=O)oc2cc1OC(=O)C1CCCN1C(=O)OC(C)(C)C (centres undefined)	-0.1	.	.	i

cpd	HSV replic up primary fold	PKD1 inh	RGS16-Gao
71	0.91	-4	103
72	0.97	-3	99
73	1.3	.	101
74	0.87	6	110
75	1.1	.	94
76	0.85	-3	105
77	1	2	99
